Screens as filed in PubChem BioAssay.
CSC inhib: blocks cancer stem cells. actives 1.1% (n = 300,000). cancer stem cell-like cells viability, luminescence. inhibition, % at 7.5 µM;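 active means mean at 75% or more and at least half the replicates too; tested in HMLE shEcad cells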;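 further: 0% = median of negative and 100% = median of positive control wells; the first replicate is given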
Rce1 inh: inhibitors of yeast Ras-converting enzyme. AID 2563. Q03530. actives 0.27% (n = 290,000). yeast membranes, quenched prenylated peptide cleavage fluorescence. calls only;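 active means fall in fluorescence gain of 50% or more versus controls, with final raw signal at or below 3038400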;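 further: plate controls were neutral control wells for no effect and wells lacking membranes for full effect; tested at 10 µM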
Target sequence (Q03530 whole entry, looked up): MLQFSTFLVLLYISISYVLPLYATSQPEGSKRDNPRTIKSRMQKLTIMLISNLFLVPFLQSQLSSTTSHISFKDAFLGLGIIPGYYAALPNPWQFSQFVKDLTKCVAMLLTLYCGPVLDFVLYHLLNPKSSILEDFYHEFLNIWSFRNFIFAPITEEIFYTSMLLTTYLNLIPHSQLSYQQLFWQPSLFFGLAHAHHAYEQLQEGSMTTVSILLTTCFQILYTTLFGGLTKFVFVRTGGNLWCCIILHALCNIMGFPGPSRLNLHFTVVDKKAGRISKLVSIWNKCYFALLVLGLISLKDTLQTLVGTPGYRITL
eIF4H FP inh: inhibitors of RNA binding by human eIF4H | eIF4H fluorescence polarization binding assay | inhibition, % at 35 µM | Q15056 | actives 0.94% (n = 290,000);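 active means 50% or more with normal probe brightness, or confirmed in later tests; about a fifth of its hits are not listed in these tables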;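 further: calls also rest on retests at 20 µM and on dose response follow-up; 0% = protein and probe with vehicle and 100% = probe without protein; strong numbers were not always called active; many hits fall short of the cut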
PABP FP inh: blocks human PABP binding to poly(A) RNA; P11940; fluorescence polarization; inhibition, % at 35 µM; actives 1% (n = 290,000); AID 2014;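 active means 50% or more with normal probe brightness, or confirmed in later tests; about a fifth of its hits are not listed in these tables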;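 further: calls also rest on retests at 20 µM and on dose response follow-up; controls were probe without protein and protein plus probe with vehicle; some compounds called inactive have numbers as strong as hits; many hits fall short of the cut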
Env fusion inh: blocks HIV Env-driven cell-cell fusion | HeLa-JRFL Env/CEM21 cell fusion, luciferase | inhibition, % at 12.3 µM | actives 1.1% (n = 360,000) | AID 651610;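 active means mean replicate inhibition score of at least 50 and every replicate individually at or above 50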;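 further: 0% = plate neutral controls and 100% = maraviroc near 300 nM; one replicate is shown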
Yeast UUG start: modulators of start codon recognition fidelity in yeast. AID 602363. activity score, % at 18.7 µM. actives 0.13% (n = 350,000). S. cerevisiae UUG-firefly luciferase reporter, luminescence/redox ratio;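 active means replicate mean at a twofold rise or more, about +100% in these data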;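 further: firefly luciferase made from a UUG start codon reports start codon fidelity; reporter light over untreated wells divided by growth signal over untreated wells; some hits fall short of that in this replicate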
MT1-MMP act inh: MT1-MMP (human) activation inhibition; actives 0.061% (n = 360,000); AID 651647; GFP/RFP ratio change, % at 20 µM; HT1080 RFP-PRO-GFP cells, GFP/RFP ratio fluorescence, overnight; percent of plate control window, DMSO zero; P50281;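 active means GFP/RFP ratio change of at least 30% with cell ATP level not reduced by more than half and red fluorescence within 50% of control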; further: strong numbers were not always called active
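Assay system: RFP-PRO-GFP reporter HT1080 cells; read-out basis: GFP/RFP fluorescence ratio; benchmarks: DMSO wells and RFP-L50D-GFP cells; doses: 20 µM single dose, 1% DMSO; schedule: overnight cell settling, then overnight compound exposure, 37 °C, 5% CO2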
eIF4H FP inh retest: recorded beside eIF4H FP inh, whose call it bears; inhibition, %; compound at 20 µM; confirmation average;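 mean of two retest wells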
PABP FP inh retest: recorded beside PABP FP inh, whose call it bears; inhibition, %; compound at 20 µM; confirmation repeats;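 mean of two retest wells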
MT1-MMP act inh RFP: recorded beside MT1-MMP act inh, whose call it bears; RFP signal change, %; measured here: RFP expression control read;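 0 = vehicle wells; hits needed this value within 50% of zero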
* hit, by the source's call.

`O=C(Nc1cc(C(=O)N2CCCC2)ccc1N1CCCC1)c1ccccc1` gave Rce1 inh inactive, eIF4H FP inh 0.7, PABP FP inh 5.8, Yeast UUG start 9.7, MT1-MMP act inh 7.0 and MT1-MMP act inh RFP -6.0.
Cc1cc(C)c2c(N)c3ccccc3nc2n1 was read as CSC inhib 8.4, Rce1 inh inactive, eIF4H FP inh 27.4, PABP FP inh 2.1, Env fusion inh -221.5, Yeast UUG start 23.2, MT1-MMP act inh 9.7 and MT1-MMP act inh RFP 11.3.
For CCCN1CCN(C(=O)Nc2ccc(OCC)cc2)CC1 the results were CSC inhib -6.3, Rce1 inh inactive, eIF4H FP inh -4.3, PABP FP inh -10.2, Env fusion inh 4.3, MT1-MMP act inh 1.2 and MT1-MMP act inh RFP 5.4.
Screening COc1ccccc1N1CCN(S(=O)(=O)c2cc(-c3cc(C)no3)ccc2C(C)C)CC1 returned CSC inhib 53.0, Rce1 inh inactive, eIF4H FP inh -38.2, PABP FP inh 3.9, Env fusion inh 5.1, Yeast UUG start 0.3, MT1-MMP act inh -1.4 and MT1-MMP act inh RFP -5.1.
For O=C(O)C(c1ccccc1)C1(O)CCCCC1 (centres undefined) the results were CSC inhib -1.7, Rce1 inh inactive, eIF4H FP inh -4.5, PABP FP inh 4.5, Env fusion inh 5.0, Yeast UUG start -11.5, MT1-MMP act inh 1.2 and MT1-MMP act inh RFP 5.1.
`O=C(c1cc(-c2ccco2)on1)N1CCCc2ccccc21` gave CSC inhib -3.3, Rce1 inh inactive, eIF4H FP inh 24.3, PABP FP inh -4.6, Yeast UUG start -15.3, MT1-MMP act inh -0.8 and MT1-MMP act inh RFP 8.9.
O=C(Nc1ccccc1N1CCN(c2ccccc2)CC1)C1CCCCC1 was read as CSC inhib 21.0, Rce1 inh inactive, eIF4H FP inh 0.5, PABP FP inh 4.7, Yeast UUG start -10.9, MT1-MMP act inh 3.5 and MT1-MMP act inh RFP 1.8.
CCOc1cc2[nH]c(=S)n(CCCCC(=O)NCc3ccco3)c(=O)c2cc1OCC was read as CSC inhib -4.3, Rce1 inh inactive, eIF4H FP inh -3.2, PABP FP inh -4.6, Env fusion inh -9.4, Yeast UUG start -7.1, MT1-MMP act inh 0.2 and MT1-MMP act inh RFP 2.5.
`CCCc1c(C(=O)N/N=C/c2ccccc2OCc2ccc(F)cc2)nnn1-c1nonc1N` gave CSC inhib -9.2, Rce1 inh inactive, eIF4H FP inh -10.8, PABP FP inh -2.0, Env fusion inh -9.8, Yeast UUG start -0.8, MT1-MMP act inh 0.9 and MT1-MMP act inh RFP 2.2.
CC(C)CN(C(=O)Cn1ccccc1=O)C1CCS(=O)(=O)C1 (centres undefined) was read as CSC inhib -9.0, Yeast UUG start -8.6, MT1-MMP act inh 5.0 and MT1-MMP act inh RFP 5.8.
`Cc1ccc2oc(=O)n(CC(=O)c3ccc(F)cc3)c2c1` gave CSC inhib 12.3, Rce1 inh inactive, eIF4H FP inh -1.7, PABP FP inh 1.8, Env fusion inh -3.5, MT1-MMP act inh -4.3 and MT1-MMP act inh RFP -2.0.
COC(=O)c1cc(S(=O)(=O)N2CCC(C(N)=O)CC2)oc1C was read as CSC inhib -17.9, Rce1 inh inactive, eIF4H FP inh -6.4, PABP FP inh -2.1, Env fusion inh -2.9, Yeast UUG start -18.0, MT1-MMP act inh 2.3 and MT1-MMP act inh RFP -0.5.
Screening Cc1noc(C)c1COC(=O)/C=C/c1ccccc1Cl returned CSC inhib 9.2, Rce1 inh inactive, eIF4H FP inh -12.7, PABP FP inh 3.3 and Env fusion inh 5.5.
CCCCCCCCNC(=O)c1cnsn1 was read as CSC inhib -6.6, eIF4H FP inh -5.6, PABP FP inh -2.5, Env fusion inh 12.8, MT1-MMP act inh 1.4 and MT1-MMP act inh RFP -2.2.
`COC(=O)c1sc(NC(=O)c2ccc(C)o2)nc1C` gave CSC inhib 18.5, Rce1 inh inactive, eIF4H FP inh 3.2, PABP FP inh -1.5, Env fusion inh -47.0, MT1-MMP act inh 0.8 and MT1-MMP act inh RFP -0.4.
CC(C)=CCC/C(C)=C/CNC(=O)C[C@H]1C[C@H](C(=O)N2CCCCC2)[C@@]2(C)c3[nH]c4ccc(Cl)cc4c3CCN2C1=O was read as Env fusion inh -0.8, Yeast UUG start -11.5, MT1-MMP act inh 1.0 and MT1-MMP act inh RFP -1.6.
CC(=O)Nc1c(O)nc(SCC(=O)Nc2c(C)cccc2C)[nH]c1=O was read as CSC inhib -19.1, Rce1 inh inactive, eIF4H FP inh 0.8, PABP FP inh -4.5, Env fusion inh -33.6, Yeast UUG start -12.7, MT1-MMP act inh 3.1 and MT1-MMP act inh RFP -2.1.
CNc1ccccc1C(=O)OC(C)C(=O)Nc1ccc(S(=O)(=O)N2CCCC2)cc1 (centres undefined) was read as CSC inhib 1.1, eIF4H FP inh -4.0, PABP FP inh -0.3, Env fusion inh -6.2, Yeast UUG start -8.3, MT1-MMP act inh 2.5 and MT1-MMP act inh RFP -0.4.
`CS(=O)(=O)Nc1nc2n(n1)C(c1ccc(F)cc1)CC(c1ccccc1)N2` (centres undefined) gave CSC inhib 6.4, Rce1 inh inactive, eIF4H FP inh -2.8, PABP FP inh 5.6, Env fusion inh 10.1, Yeast UUG start -13.5, MT1-MMP act inh -1.1 and MT1-MMP act inh RFP 0.1.
For COc1ccc(CNC(=O)CN(Cc2ccc(OC)cc2)C(=O)c2csnn2)cc1 the results were CSC inhib -0.2, Rce1 inh inactive, eIF4H FP inh 6.0, PABP FP inh 0.9, Env fusion inh 15.7, MT1-MMP act inh 0.5 and MT1-MMP act inh RFP 1.9.
Cc1ccc(C)c(N2CCN(C(=O)Cn3cccc3)CC2)c1 was read as CSC inhib -16.4, Rce1 inh inactive, eIF4H FP inh 11.9, PABP FP inh 6.0, Env fusion inh -37.9, Yeast UUG start 5.4, MT1-MMP act inh -0.5 and MT1-MMP act inh RFP -0.7.
For c1ccc(-c2ccc(C3CCCN3)cc2)cc1 (centres undefined) the results were CSC inhib -2.3, Rce1 inh inactive, eIF4H FP inh -6.4, PABP FP inh -1.7, Env fusion inh -0.7, Yeast UUG start -24.7, MT1-MMP act inh 2.0 and MT1-MMP act inh RFP 0.6.
O=C(c1ccc(Cn2cc(Br)cn2)cc1)N1N=C(C(F)F)CC1(O)C(F)F (centres undefined) was read as CSC inhib 4.8, Rce1 inh inactive, eIF4H FP inh 1.9, PABP FP inh 4.8, Env fusion inh 16.7, MT1-MMP act inh 1.1 and MT1-MMP act inh RFP 2.1.
For O=C(c1cc2nc(-c3ccccc3)cc(-c3ccccc3)n2n1)N1CCCC1 the results were CSC inhib -14.9, Rce1 inh inactive, eIF4H FP inh 8.5, PABP FP inh 26.8, Env fusion inh 3.9, MT1-MMP act inh -3.4 and MT1-MMP act inh RFP -4.6.
O=C1OCC/C1=C\c1ccc(O)cc1 was read as CSC inhib -8.3, Rce1 inh inactive, eIF4H FP inh 1.6, PABP FP inh 5.0, Env fusion inh -19.8, Yeast UUG start -0.6, MT1-MMP act inh -2.4 and MT1-MMP act inh RFP -1.6.
For O=C(COC(=O)c1ccc(S(=O)(=O)N2CCCCC2)cc1)NCc1ccccc1 the results were CSC inhib -11.2, Yeast UUG start -16.3, MT1-MMP act inh -1.5 and MT1-MMP act inh RFP 2.2.
Screening Cc1ccccc1OCC(=O)N/N=C/c1ccc(Sc2nc3ccccc3s2)o1 returned CSC inhib 21.1, Rce1 inh inactive, eIF4H FP inh -8.4, PABP FP inh -4.5, Env fusion inh -14.6, Yeast UUG start -7.2, MT1-MMP act inh -5.4 and MT1-MMP act inh RFP -8.6.
`CC1(C)C2CCC1(CS(=O)(=O)N1CCOCC1)C(=O)C2` (centres undefined) gave CSC inhib 1.8, Rce1 inh inactive, eIF4H FP inh -1.1, PABP FP inh 1.5, MT1-MMP act inh 1.6 and MT1-MMP act inh RFP 4.0.
Cn1ccc(NC(=O)Nc2cccc(C(F)(F)F)c2)n1 was read as CSC inhib -6.2, Rce1 inh inactive, eIF4H FP inh -4.3, PABP FP inh 8.0, Env fusion inh 4.7, Yeast UUG start -19.7, MT1-MMP act inh 1.2 and MT1-MMP act inh RFP -0.3.
For CCOC(=O)c1ccc(N2CN(C3CCCCC3)CNC2=S)cc1 the results were CSC inhib -8.4, Rce1 inh inactive, eIF4H FP inh 5.3, PABP FP inh -3.5, Yeast UUG start -21.9, MT1-MMP act inh 4.0 and MT1-MMP act inh RFP 4.8.
For CCOc1ncccc1C(=O)N=C1SCCN1C(=O)c1cccnc1OCC the results were CSC inhib -8.4, Rce1 inh inactive, eIF4H FP inh -1.7, PABP FP inh -10.8, Env fusion inh 6.2, Yeast UUG start -15.6, MT1-MMP act inh -1.5 and MT1-MMP act inh RFP 1.7.
For N=C1S/C(=C\c2ccco2)C(=O)N1c1nccs1 the results were Rce1 inh inactive, eIF4H FP inh 95.2*, PABP FP inh 3.2*, Env fusion inh -19.8, Yeast UUG start -27.1, MT1-MMP act inh 2.9, eIF4H FP inh retest 88.3*, PABP FP inh retest 70.2* and MT1-MMP act inh RFP -1.5.
`CC(C)(C)C(=O)/C=C/c1ccc(Oc2ccccc2)cc1` gave CSC inhib 11.2, Rce1 inh inactive, eIF4H FP inh 1.7, PABP FP inh 3.7, Env fusion inh -16.5, Yeast UUG start -15.3, MT1-MMP act inh -7.0 and MT1-MMP act inh RFP -2.5.
Cc1ccc(S(=O)(=O)C2(C(=O)N3CCN(c4ccccc4F)CC3)CC2)cc1 was read as CSC inhib 1.7, Rce1 inh inactive, eIF4H FP inh -0.8, PABP FP inh 6.8, Env fusion inh 11.5, Yeast UUG start -2.0, MT1-MMP act inh -1.7 and MT1-MMP act inh RFP 1.2.
For CC1CN(C(c2cccs2)c2sc3ncnn3c2O)CC(C)O1 (centres undefined) the results were CSC inhib -6.6, Rce1 inh inactive, eIF4H FP inh 13.0, PABP FP inh 4.3, Env fusion inh -3.7, Yeast UUG start -12.7, MT1-MMP act inh -3.5 and MT1-MMP act inh RFP 2.6.
Screening O=C(COc1cc2oc(=O)c3c(c2cc1Cl)CCCC3)NCC1CCC(C(=O)O)CC1 (centres undefined) returned CSC inhib 4.8, Rce1 inh inactive, eIF4H FP inh -2.4, PABP FP inh 21.7, Env fusion inh -4.3, Yeast UUG start 8.9, MT1-MMP act inh 1.3 and MT1-MMP act inh RFP 1.4.
Screening CCc1ccc(CSc2nccn2-c2ccccc2)cc1 returned CSC inhib -2.4, Rce1 inh inactive, eIF4H FP inh -4.1, PABP FP inh -3.2, Yeast UUG start -22.6, MT1-MMP act inh -2.8 and MT1-MMP act inh RFP -0.3.
Screening Cc1ccc2c(c1)[nH]c1c(=O)n(Cc3ccccn3)cnc12 returned CSC inhib -10.7, Rce1 inh inactive, eIF4H FP inh -4.8, PABP FP inh 2.0, Yeast UUG start -9.4, MT1-MMP act inh 7.3 and MT1-MMP act inh RFP 1.2.
`COc1ccc(/C=N/NC(=O)CN(C)C(=O)OCc2ccccc2)cc1OC` gave CSC inhib -12.2, Rce1 inh inactive, eIF4H FP inh 3.3, PABP FP inh 7.6, Env fusion inh -22.2, Yeast UUG start -11.1, MT1-MMP act inh -3.4 and MT1-MMP act inh RFP -1.9.

In the list so far, 2 contain a COOH group.
For O=C(O)C(c1ccccc1)C1(O)CCCCC1 (centres undefined) the results were CSC inhib -1.7, Rce1 inh inactive, eIF4H FP inh -4.5, PABP FP inh 4.5, Env fusion inh 5.0, Yeast UUG start -11.5, MT1-MMP act inh 1.2 and MT1-MMP act inh RFP 5.1.
Screening O=C(COc1cc2oc(=O)c3c(c2cc1Cl)CCCC3)NCC1CCC(C(=O)O)CC1 (centres undefined) returned CSC inhib 4.8, Rce1 inh inactive, eIF4H FP inh -2.4, PABP FP inh 21.7, Env fusion inh -4.3, Yeast UUG start 8.9, MT1-MMP act inh 1.3 and MT1-MMP act inh RFP 1.4.
